# NPYLR7 ag – mosquito NPYLR7 agonism; HEK293T NPYLR7/Galpha15, GCaMP6s calcium fluorescence; activation, % at 10 µM; hit rate 0.15% among 270,000; in the data active = activation above about 40%;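 also: 0% = vehicle and 100% = reference agonist at the receptor; some compounds past the cut are filed as inactive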
# NPYLR7 ag max-min – recorded beside NPYLR7 ag, whose call it bears; activation, %; measured here: Max-Min RFU normalised activation; some inactives read as strong as hits;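 span of the calcium signal over five minutes; 0% = vehicle and 100% = native peptide agonist; compound fluorescence can raise it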
# * marks the source's active call; other numbers are inactive results; & = joins results of further samples.
SMILES,NPYLR7 ag,NPYLR7 ag max-min
CC(C)(O)C#Cc1ccc(CN2CCC(c3nc(C(F)(F)F)ncc3-c3cccc(F)c3)CC2)cc1,28,11
CC(C)CCN(Cc1ccc(C(F)(F)F)cc1)Cc1cccn1Cc1ccc(C(F)(F)F)cc1,8,14
COc1ccc(Cl)cc1S(=O)(=O)Nc1ccccc1C(=O)NCCc1ccc(F)cc1,-2,9
c1ccc(N2CCN(c3cc(-c4cccc5ccccc45)nc4ccnn34)CC2)nc1,-15,-17
OC(CNc1ccccn1)c1ccccc1 (stereo not drawn),-4,-13
CCCCc1ccc(NC(=O)c2cc(=O)c(OCc3ccccc3)cn2C)cc1,3,-1
NC(=O)CCCCn1ccc(NC(N)=NCC(F)(F)F)n1,2,-4
Cc1ccc(NCC(=O)N2CCCC(C)C2)cc1-n1nnnc1C (stereo not drawn),0,-2
CC(C)N(CC(=O)N(Cc1ccc2c(c1)OCO2)Cc1cccs1)C(=O)Nc1ccc(Cl)cc1,-4,9
O=C1CSCN1CC(=O)N(C/C=C/c1ccccc1)c1ccc2c(c1)OCCO2,3,11
O=C(NCCc1ccccn1)c1ccc(-c2cc(C(F)(F)F)cc(C(F)(F)F)c2)nc1NCC1CC1,-8,-10
Cc1nnc(-c2cccc(NC(=O)C3CCCCN3C(=O)C3CCCC3)c2)s1 (stereo not drawn),8,11
O=C(CCc1ccccc1)N(CCCN1CCOCC1)c1nc2ccccc2s1,-3,-8
CC(=O)Nc1ccc2nc(-c3[nH]cnc3-c3ccccc3)ccc2c1,-1,-11
CC(=O)N[C@@H]1CCCCC1NC(=O)C1CCCN(C(=O)c2ccc(Cl)c(Cl)c2)C1 (stereo partly drawn),-2,0
Cc1ccc(CN2C(=O)c3ccccc3C2(O)Cc2ccccc2)cc1 (stereo not drawn),2,1
O=C1OC(/C=C\c2cccc([N+](=O)[O-])c2)=NC/1=C/c1cccs1,-3,-3
CCCN(CC(=O)Nc1cc(-c2ccccc2)nn1-c1ccccc1Cl)C(=O)Nc1ccc(OC)cc1OC,20,20
C=C(CC1CC(=O)N(CCc2nc3ccccc3[nH]2)C1=O)CC(C)(C)C (stereo not drawn),-6,-11
CN(Cc1ccsc1)C(=O)c1ccc(S(=O)(=O)Nc2ccc(F)cc2)cc1,4,3
COc1ccc(CCNC(=O)COc2nc(C)nc3ccccc23)cc1,11,15
C=CCN(CC=C)C(=O)[C@@H]1C[C@H](NC(=O)c2ccccc2C)CN1C,8,-1
O=S(=O)(Nc1ccc(Cl)cn1)c1cccs1,5,0
CSc1nc(C)c(C(=O)C[n+]2ccc(C)cc2)cc1C#N,1,1
COc1ccc(OC)c(NC(=O)CSc2ccc3nnc(-c4ccncc4)n3n2)c1,-1,-1
COc1ccc(OC)c2c(C)cc(N3Cc4cnn(CCO)c4C3)nc12,16,10
CC(=O)Nc1cccc(-c2ccccc2-c2nnc(C)s2)c1,-8,-12
Cc1sc(C(=O)NCCn2c([N+](=O)[O-])cnc2C)c(-n2c(C)ccc2C)c1C,-4,-11
COc1ccccc1OCC(=O)Oc1coc(CSc2nc(C)cc(C)n2)cc1=O,-15,-9
COc1cccc(N2C(=O)C3C(C2=O)C2C=CC3C23CC3)c1 (stereo not drawn),3,2

# Fetched one by one from the list above (six):
SMILES,NPYLR7 ag,NPYLR7 ag max-min
O=S(=O)(Nc1ccc(Cl)cn1)c1cccs1,5,0
O=C1OC(/C=C\c2cccc([N+](=O)[O-])c2)=NC/1=C/c1cccs1,-3,-3
COc1cccc(N2C(=O)C3C(C2=O)C2C=CC3C23CC3)c1 (stereo not drawn),3,2
CSc1nc(C)c(C(=O)C[n+]2ccc(C)cc2)cc1C#N,1,1
COc1ccc(OC)c2c(C)cc(N3Cc4cnn(CCO)c4C3)nc12,16,10
COc1ccccc1OCC(=O)Oc1coc(CSc2nc(C)cc(C)n2)cc1=O,-15,-9

# Compound profiles, as listed above. Values in the order: NPYLR7 ag | NPYLR7 ag max-min
# Cc1ccc(CN2C(=O)c3ccccc3C2(O)Cc2ccccc2)cc1 (stereo not drawn) is entered as 2 | 1
# NC(=O)CCCCn1ccc(NC(N)=NCC(F)(F)F)n1 is entered as 2 | -4

# Remaining list, next part
SMILES,NPYLR7 ag,NPYLR7 ag max-min
Cc1cc(C(=O)N2CCC3(CCCN(CCC4CCCCC4)C3)C2)nn1C (stereo not drawn),4,-1
O=C(O)C1C2C=CC3(CN(Cc4ccco4)C(=O)C13)O2 (stereo not drawn),2,-2
O=C(NCc1csc2ccccc12)NC1CCC(CO)CC1 (stereo not drawn),1,-1
Cc1nnc(NC(=O)CSc2nc(-c3ccccc3C)nc3c2c(=O)n(C)c(=O)n3C)s1,-6,-11
CN(Cc1ccc(F)cc1Cl)c1nccnc1C#N,5,4
CC(C)(C)OC(=O)N1CCC(O)(c2ccccc2CO)CC1,-1,-2
CCOC(=O)C1(Cc2cccc(OC)c2)CCCN(C(=O)Nc2ccc(F)cc2)C1 (stereo not drawn),3,-1
CCOC(=O)C1CCCN(C(=O)c2cccc(CSc3nc(Cl)cc(N4CCCCC4)n3)c2)C1 (stereo not drawn),25,23
Cn1c(=O)c2c(ncn2CCOC(=O)C(C)(C)Oc2ccc(Cl)cc2)n(C)c1=O,-17,-26
COc1ccc(-c2nc(OCc3ccc(F)cc3)nn2-c2ccc(NC(=O)c3ccc([N+](=O)[O-])cc3)cc2)cc1,14,7
CC(=O)Nc1cccc(-c2nccnc2C)c1,22,15
CCOC(=O)CCC(=O)N(CCc1ccccc1)C(CC)c1nc2ccccc2c(=O)n1-c1ccc(CC)cc1 (stereo not drawn),-1,3
Cc1cc(C)cc(OCCN(C)C(=O)Nc2ccc(F)cc2)c1,0,-1
O=C(C=c1[nH]c(=O)c(=Cc2cccs2)s1)c1cccc(Cl)c1,20,17
CC(C)(C)C(=O)N1CCCC(OCc2cccc(F)c2)C1 (stereo not drawn),3,13
O=C(c1cccs1)N(Cc1cccc(C(F)(F)F)c1)CC1CC(c2ccccc2Cl)=NO1 (stereo not drawn),2,8
CCOC(=O)c1cc(-c2ccc(Cl)cc2Cl)n(-c2ccc(C(=O)NC3CCc4ccccc43)cc2)n1 (stereo not drawn),-11,-13
COc1ccc(NC(=O)N(Cc2ccc(OS(=O)(=O)c3cccc(C(F)(F)F)c3)cc2)Cc2ccco2)c(OC)c1,23,26
CCSc1nc2ncnc(N)c2[nH]1,0,7
Cc1nc(CSc2nnc(C)s2)cs1,9,5
CCC(=O)Nc1nnc(C(C)(C)C)s1,0,6
CN1CCN(C(=O)CC2CSc3nc4c(c(=O)n32)CCCC4)CC1 (stereo not drawn),-2,-3
O=C(Cc1ccccc1)N1CCC(n2c(=O)oc3ccc(Cl)cc32)CC1,-1,3
Cn1cnc(S(=O)(=O)NCc2cccs2)c1,6,3
O=C1C2C3C=CC(C4CC34)C2C(=O)N1c1cccnc1 (stereo not drawn),4,4
CCCOc1nn(CCC)cc1C(=O)O,-3,-5
O=C(CNc1cc2c(cc1Cl)OCO2)NC(=O)NC1CCCCC1,4,23
NCCN1C(=O)CSC1=O,3,3
CNC(=O)[C@H]1C[C@]2(CCCCN(C)C2=O)N(C(=O)c2cccc(C#N)c2)[C@H]1c1ccco1,5,17
O=C1CC(CC(=O)N2CCCCC2c2cccnc2)(c2ccccc2)C(=O)N1Cc1cccs1 (stereo not drawn),3,5

# Sorted by number of heavy atoms (high to low): part of the list above
SMILES,NPYLR7 ag,NPYLR7 ag max-min
CNC(=O)[C@H]1C[C@]2(CCCCN(C)C2=O)N(C(=O)c2cccc(C#N)c2)[C@H]1c1ccco1,5,17
O=C(Cc1ccccc1)N1CCC(n2c(=O)oc3ccc(Cl)cc32)CC1,-1,3
O=C(CNc1cc2c(cc1Cl)OCO2)NC(=O)NC1CCCCC1,4,23
O=C1C2C3C=CC(C4CC34)C2C(=O)N1c1cccnc1 (stereo not drawn),4,4
CCC(=O)Nc1nnc(C(C)(C)C)s1,0,6
CCSc1nc2ncnc(N)c2[nH]1,0,7

# (continued)
SMILES,NPYLR7 ag,NPYLR7 ag max-min
Cc1[nH]c(=O)n(C)c(=O)c1CCc1nnc(SCC(=O)NCc2ccc(F)cc2)o1,-4,-7
Cc1nn(C)c(C)c1CN(Cc1cc2ccccc2n1C)C1CC1,1,1
O=C(Nc1ccc(Cl)c2ncsc12)c1cc2cc([N+](=O)[O-])ccc2s1,6,13
COCCC(=O)Nc1cc(C(=O)N(C)C(C)c2nc(C)cs2)cc2nc(-c3ccccc3)n(C)c12 (stereo not drawn),21,13
Cc1cc(C)cc(-n2nc(C(=O)N3CCOCC3)c(=O)n(Cc3cccc(Cl)c3)c2=O)c1,-1,5
COc1ccc(/C=C\C(=O)NCc2cc(-c3ccc(C)cc3)on2)cc1OC,2,-1
O=C(c1ccc([N+](=O)[O-])cc1)N1CCN(S(=O)(=O)C=Cc2ccccc2)CC1,1,9
O=C(CCN1CCCO1)N1CCC2(CCCN(CCCc3ccccc3)C2)C1 (stereo not drawn),5,-2
CC(C)C1CN(C(=O)c2onc3ccccc23)CCCN1CC1CC1 (stereo not drawn),9,6
C=CC[C@H](N)C(=O)O,5,-3
O=C(Cn1nc2ccc(SCc3ccc(Cl)cc3)nn2c1=O)Nc1ccccc1,-2,-8
Oc1cccc(-c2nc3c(Nc4ccc(F)c(Cl)c4)nccc3[nH]2)c1,-2,-7
O=C(CCc1ccccc1)Nc1ccc(F)cc1Br,-1,-2
CCN(C)c1ccc(CNC(=O)Cc2cc(C)on2)cc1F,0,1
COCC1=C(C(=O)OC)C(c2cccnc2)C(C#N)C(=N)O1 (stereo not drawn),-5,-9
CC(=O)NCC1(c2cccc(C(F)(F)F)c2)CCOCC1,4,5
CC1CCCCN1C(=O)c1c([N+](=O)[O-])cnn1C (stereo not drawn),-4,-5
Cc1nn2c(-c3ccc(Cl)cc3)cc(C(=O)O)nc2c1-c1ccccc1,-4,1
Cc1csc(C(C)N(C)Cc2cn[nH]c2-c2ccc(-c3ccccc3)cc2)n1 (stereo not drawn),6,2
CC(=O)N1CCN(C(=O)C=Cc2csc(-c3ccc(F)cc3)n2)CC1,-2,-8
Cn1cc(C(=O)NCC2CCN(c3cccc(F)c3C#N)CC2)cn1,2,-3
Cn1cc(S(=O)(=O)N2CCN(c3cccc(Cl)c3)CC2)c(=O)n(C)c1=O,-1,-3
COc1cccc(Cc2nsc(N3CCCN(C(=O)Nc4ccccc4OC)CC3)n2)c1,-8,-10
COC(=O)[C@H](Cc1ccc(OCc2c(Cl)cccc2Cl)cc1)N1C(=O)c2ccc(C)cc2C1=O,-6,-9
CSCC(=O)N1CCCC(Nc2ccc(C(C)C)cc2)C1 (stereo not drawn),2,0
CC(NC(=O)c1cnn2c1CCCC2)c1nc(-c2cccnc2)no1 (stereo not drawn),2,2
CC(C(=O)Nc1cccc(Cl)c1SCC(F)F)n1ccnc1 (stereo not drawn),-4,-6
CN(Cc1cnc(N2CCOCC2)s1)CC1CCCCO1 (stereo not drawn),7,-5
Cc1cnc(C)c(-c2cc(O)c3c(c2)CN(C2Cc4ccccc4C2)CCO3)n1,24,12
CC(C)(C)c1cc(NC(=O)CN(Cc2ccco2)C(=O)CSc2ccccc2)n(-c2ccc(Cl)c(Cl)c2)n1,-2,5
CCOc1ccccc1-c1nc(Cn2nnc(C(=O)Nc3c(C)cc(C)cc3C)c2C)c(C)o1,-3,-6
FC(F)(F)CCc1ccnc(NCc2csc(-c3ncccn3)n2)n1,5,3
CCOc1ccccc1CN1CCN(CC#Cc2ccccc2)CC1CCO (stereo not drawn),-3,-6
C=C(C)Cn1c(=O)c2c(nc3n(CCc4ccccc4)c(C)c(C)n23)n(C)c1=O,2,1
Cc1cc(C(=O)Nc2ccc(F)cc2I)n[nH]1,5,4
NC(=O)CN1C[C@H](O)[C@H]2C[C@@H]1Cc1c2[nH]c2ccccc12,29,37
Cn1nc(C(=O)O)c2c1CCN(C(=O)CCc1cccnc1)C2,20,3
CN(c1cc(Cl)nc(N)n1)C(C1CC1)C1CC1,11,10
O=C(c1cc[n+]([O-])cc1)N1CCc2c([nH]c3ccccc23)C1c1ccccc1Cl (stereo not drawn),5&16,10&0
COc1cccc(-n2c(SCC(=O)Nc3ccc(C(N)=O)cc3)nc3c(c2=O)SCC3)c1,-6,-10
CCOC(=O)c1c(NC(=O)COc2ccc(Br)cc2)sc2c1CCCC2,-7,-11
CC(C)c1nccn1Cc1cc(C(=O)N(C)Cc2n[nH]c3c2CCCC3)n[nH]1,4,0
O=C1OCCN1CCn1cnc(-c2ccccc2)c1-c1cc2ccccc2o1,-9,-11
CNC(=O)C1SC(=Nc2ccc(Cl)c(Cl)c2)N(Cc2ccccc2)N=C1C (stereo not drawn),2&2,4&1
CCc1cc(N2CCN(c3ccc(OC)cc3)CC2)nc(SCc2ccc(C(=O)O)o2)n1,15,18
O=C(CNC(=O)c1cccs1)N=Nc1c(O)n(Cc2ccccc2)c2ccccc12,2,-9
c1cnc2ccc(-c3ccc4ncccc4c3)cc2c1,1,-2
O=C(NCC(c1ccc2c(c1)OCO2)N1CCN(c2ccc(F)cc2)CC1)OCc1ccccc1 (stereo not drawn),0,-5
CCCOC(=NCC1CCCO1)NC(=O)c1ccc(Cl)c(Cl)c1 (stereo not drawn),-7,-5
CCNC(=O)CC1C(=O)NCCN1Cc1cc(OC)cc(OC)c1 (stereo not drawn),6,4
CC(=O)OCC(=O)[C@@]12OC3(CCCC3)O[C@@H]1CC1C3CCC4=CC(=O)C=C[C@]4(C)[C@@]3(F)[C@@H](O)C[C@@]12C (stereo partly drawn),-11,-18
Cc1nc2c(OCc3ccc(F)cc3)cccn2c1N(C)C(=O)C1CCCCC1,4,1
O=C(NCC1CCCN(Cc2ccon2)C1)C1(c2ccc(Cl)cc2)CC1 (stereo not drawn),14&0,6&0
CCOC(=O)N1CCN(c2ccc(/C=C(\C#N)c3nc4ccccc4[nH]3)o2)CC1,102*,145*
CCOC(=O)[C@H]1C[C@@H]2O[C@H]1[C@H]1CN(S(=O)(=O)c3ccc(F)cc3)C[C@H]1[C@@H]2O,-1,8
CC(C)Oc1nc(-c2cccs2)n(-c2cccc(NC(=O)C3CCC3)c2)n1,23,33

# Not all compounds are listed, so the mix of outcomes need not match the whole.
